# HPGD block: blocks human HPGD enzyme activity; 150,000 tested, 4.3% active; P15428; Potency, µM, for inactives: at the highest dose activity change, negative = inhibition, most hits filed as inhibitors; purified HPGD, NADH fluorescence kinetic, PGE2 substrate; active = well fitted inhibition curve with a large enough effect (not every such curve was filed as active); inconclusive = small, poorly fitted or top-dose-only effect, or another doubt; inactive = no such curve, though single readings can be large or run the other way;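 note: top concentration of the series not given in the record; plate controls included wells without enzyme; inactives centre near -10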
# Target sequence (P15428 whole entry, looked up): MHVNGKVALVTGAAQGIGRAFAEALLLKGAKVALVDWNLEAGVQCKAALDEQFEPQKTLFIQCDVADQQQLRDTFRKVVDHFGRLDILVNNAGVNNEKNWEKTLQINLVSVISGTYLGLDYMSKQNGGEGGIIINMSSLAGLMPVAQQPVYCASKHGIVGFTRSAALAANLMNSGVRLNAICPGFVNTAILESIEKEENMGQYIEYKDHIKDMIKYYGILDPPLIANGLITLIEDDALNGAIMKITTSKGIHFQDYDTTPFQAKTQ
#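 20 nM HPGD preincubated 15 min at room temperature with compound in 50 mM Tris-HCl pH 8, 0.01% Tween 20. Started with 1 mM NAD+ and 30 uM prostaglandin E2; NADH fluorescence (360/450 nm) read 5 times over 30-s intervals, last minus first.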
# An asterisk follows results filed as active; ? = inconclusive; & = joins results of further samples. % is set by controls: 0 for no effect and ±100 for the full control effect; potency is the fitted concentration of half-maximal effect. The list is partial, so the mix of outcomes need not match the whole.
SMILES,HPGD block
Cc1ccc(N2CC(C(=O)Nc3nccs3)CC2=O)cc1Cl (stereo not drawn),5%
COc1ccccc1CNC(=O)CN1CCC(NC(=O)c2ccccc2F)CC1,-10%
COc1ccc(-n2c(=O)c3ccccc3n(CC(=O)NC3CCCCC3)c2=O)c(OC)c1,-3%
CCOc1cc(S(=O)(=O)N2CCC(C(N)=O)CC2)ccc1F,-7%
O=C(c1cc(-c2ccncc2)nc2ccc(Cl)cc12)N1CCN(C(=O)C2CCCO2)CC1 (stereo not drawn),-5%
c1ccc(-c2ccc(-c3nc(-c4cccnc4)no3)cc2)cc1,?
C=CCNc1ccc(F)c(F)c1N1CCCCCC1=O,-11%
CC(C)(C)NC(=O)C(c1ccncc1)N(Cc1cccs1)C(=O)Cn1nnc(-c2ccc(F)cc2)n1 (stereo not drawn),2%
CSCC[C@H](NC(=O)NCCc1ccc(F)cc1)C(=O)O,1%
CCOC(=O)c1ccc(N=c2sc(C(=O)OC)cc(=O)n2C2CC2)cc1,-1%
CCOC(=O)Cn1c(CN2CCc3ccccc3C2)nc2c1c(=O)n(C)c(=O)n2C,3%
CCOc1cc(CNCc2ccncc2)cc(Br)c1OCc1ccc(F)cc1,-9%
CCOc1ccccc1NC(=O)NC1CC2CCCC(C1)N2Cc1nnnn1CCc1ccccc1 (stereo not drawn),-3%
Cc1nn(-c2ccccc2)c(C)c1C(=O)NCc1ccc(F)cc1,-15%
O=C(c1ccco1)N1CCN(C(=O)N2CCOCC2)CC1,-11%
O=C(O)CCC(=O)Nc1sc2c(c1C(=O)Nc1cccc3ccccc13)CCCCC2,-2%
O=C(O)CSC1CC(=O)N(c2cccc(Cl)c2)C1=O (stereo not drawn),-3%
CN(C)S(=O)(=O)c1ccc(C(=O)NCc2ccccc2)cc1,-12%
CCC(=O)N1CCc2cc(S(=O)(=O)NCCC(=O)NC3CCCc4ccccc43)ccc21 (stereo not drawn),-12%
Cc1ccc(-n2ncc(C#N)c2/N=C/N2CCN(C)CC2)cc1,-5%
Cc1ccc(C)c(S(=O)(=O)Nc2ccc(O)cc2)c1,-9%
COc1ccccc1NC(=O)C1CCN(c2ncccn2)CC1,-23%
COc1ccccc1NC(=S)N1C2CCC1CC(NC(=O)NC13CC4CC(CC(C4)C1)C3)C2 (stereo not drawn),-16%
CC(=O)c1c(C)[nH]c(C(=O)Nc2cc(C)cc(C)c2)c1C,2%
S=c1[nH]nc(Cc2c[nH]c3ccccc23)o1,-7%
COc1ccccc1C(=O)Oc1ccc(C(C)(C)C)cc1,-29%
Cc1cc(C)cc(N(CC(=O)NCCSc2ccccn2)S(=O)(=O)c2ccccc2)c1,-15%
CC(C)CC(NC(=O)c1ccc(Cl)cc1)C(=O)OCc1cc([N+](=O)[O-])cc2c1OCOC2 (stereo not drawn),-7%
Cc1ccc(NC(=O)C2CCC(=O)N2)cc1C (stereo not drawn),-19%
C=CCc1ccc(OCCn2cccc2C=O)c(OC)c1,-12%
CC(C)N(N=Nc1ccc([N+](=O)[O-])cc1)C(C)C,-14%
Cc1c(N=Cc2ccc[nH]2)c(=O)n(-c2ccccc2)n1C,?
CC(C)N(C(=O)NC(=O)Nc1ccccn1)S(C)(=O)=O,-19%
CCC1=NN=C(c2ccc(F)cc2)C(c2c[nH]c3ccccc23)N1O (stereo not drawn),-11%
O=C1NCCc2cc3c(cc21)OCO3,-21%
O=C(O)c1cccc(Oc2ccccc2[N+](=O)[O-])c1,-11%
CCOC(=O)c1cccc(NS(=O)(=O)c2cnc[nH]2)c1,-17%
Cc1ccc2nsnc2c1NS(=O)(=O)c1c(C)ccc2nsnc12,-6%
COc1ccc(Nc2ccnc3ccccc23)cc1,-17%
O=S(=O)(c1ccccc1)c1nc(-c2ccco2)oc1N1CCCCCC1,?
CCOC(=O)c1c(NC(=O)CSc2nnc(-c3c[nH]c4ccccc34)n2CCOC)sc2c1CCCC2,-21%
CCOC(=O)NC(=O)CSc1nnc(SCCC(=O)O)s1,-6%
CN(C(=O)COC(=O)C1c2ccccc2Oc2ccccc21)C1CCS(=O)(=O)C1 (stereo not drawn),-10%
CC(Sc1ccc2c(c1)OCCO2)C(=O)Nc1ccc2c(c1)OCO2 (stereo not drawn),-6%
CC1CCCCC1NC(=O)CCn1c(=O)oc2ccccc21 (stereo not drawn),0%
CSc1cccc(NC(=O)/C=C/c2cccc(Cl)c2)c1,-15%
Cc1cc(Cl)ccc1OCC(=O)N1CCCN(C(=O)COc2ccc(Cl)cc2C)CC1,-9%
Cc1ccccc1CSCC(=O)N1CCN(c2ccccc2)CC1,-7%

# Arranged by value in HPGD block (highest first): four of the compounds above.
Structure	HPGD block
CC1CCCCC1NC(=O)CCn1c(=O)oc2ccccc21 (stereo not drawn)	0%
CC(Sc1ccc2c(c1)OCCO2)C(=O)Nc1ccc2c(c1)OCO2 (stereo not drawn)	-6%
COc1ccc(Nc2ccnc3ccccc23)cc1	-17%
CCOC(=O)c1c(NC(=O)CSc2nnc(-c3c[nH]c4ccccc34)n2CCOC)sc2c1CCCC2	-21%

# Next part
SMILES,HPGD block
CCOc1ccc(NC(=O)N2CCN(CC)CC2)cc1,-9%
CCC(C)(C)NC(=O)C(c1ccc(OC)cc1)N(CC1CCCO1)C(=O)CCC(=O)Nc1cc(C)on1 (stereo not drawn),-2%
CCC(C(=O)O)C1CCC(C)C(C(C)C(O)C(C)C(=O)C(CC)C2OC3(C=CC(O)[C@@]4(CC[C@](C)(C5CC[C@@](O)(CC)C(C)O5)O4)O3)C(C)CC2C)O1 (stereo partly drawn),-14%
c1ccc2ccccc2c1,-2%
CCCCCCc1cc2cc(-c3nnc(-c4cc(OC)c(OC)c(OC)c4)o3)c(=O)oc2cc1O,-23%
COc1cc(/C=N/Nc2nc(Nc3ccccc3)nc(-n3nc(C)cc3C)n2)cc(OC)c1OC,?
COc1ccc(C2Nc3ccccc3C(=O)N2Cc2ccco2)cc1CN1C(=O)c2ccccc2C1=O (stereo not drawn),-6%
CS(=O)(=O)N(CC(=O)O)Cc1ccccc1,-7%
CC(Nc1nc2ncn(Cc3ccccc3)c2c(=O)[nH]1)C(=O)O (stereo not drawn),28µM*
CC(=O)c1cc2c(cc1NC(=O)C1CC=CCC1C(=O)O)OCO2 (stereo not drawn),-24%
O=[N+]([O-])c1ccc(OCCN2CCCCCC2)cc1,0%
CCCCC/C=C\C/C=C\C/C=C\C/C=C\CCCCCC(N)=O,-6%

# Arranged by length of the SMILES (descending): some entries from above
SMILES,HPGD block
CCC(C(=O)O)C1CCC(C)C(C(C)C(O)C(C)C(=O)C(CC)C2OC3(C=CC(O)[C@@]4(CC[C@](C)(C5CC[C@@](O)(CC)C(C)O5)O4)O3)C(C)CC2C)O1 (stereo partly drawn),-14%
CCC(C)(C)NC(=O)C(c1ccc(OC)cc1)N(CC1CCCO1)C(=O)CCC(=O)Nc1cc(C)on1 (stereo not drawn),-2%
COc1ccc(C2Nc3ccccc3C(=O)N2Cc2ccco2)cc1CN1C(=O)c2ccccc2C1=O (stereo not drawn),-6%
COc1cc(/C=N/Nc2nc(Nc3ccccc3)nc(-n3nc(C)cc3C)n2)cc(OC)c1OC,?
CC(=O)c1cc2c(cc1NC(=O)C1CC=CCC1C(=O)O)OCO2 (stereo not drawn),-24%
CS(=O)(=O)N(CC(=O)O)Cc1ccccc1,-7%

# Continued.
SMILES,HPGD block
Cn1c(SCc2nc3ccccc3[nH]2)nnc1-c1cnccn1,-12%
N#Cc1cccc(CS(=O)(=O)c2nnnn2-c2cc(C(F)(F)F)cc(C(F)(F)F)c2)c1,-9%
Clc1cccc(Cl)c1-c1nnc2ccc(N3CCOCC3)nn12,-9%
C/C(=N\NC(=O)c1csc(C)c1C)c1ccco1,?
Cc1ccc2c(c1)c1c(n2CC(O)Cn2c(C)nc3ccccc32)CCCC1 (stereo not drawn),-17%
Cc1cc(C)n2nc(NCc3ccccc3)nc2n1,?
COc1cccc(C2c3c(oc4ccccc4c3=O)C(=O)N2c2ccccn2)c1 (stereo not drawn),-10%
O=C(NC1CCCCC1)C(c1cccnc1)N(C(=O)CCl)c1cccc(Cl)c1 (stereo not drawn),-3%
Cc1ccc(S(=O)(=O)N2CCC(=O)N(C(COCc3cccc(Cl)c3)Cc3ccccc3)CC2)cc1 (stereo not drawn),-9%
Cc1ccc(S(=O)(=O)N(C)c2ccc(OCC(=O)NCc3ccco3)cc2)cc1,-15%
CCOc1cccc(-c2nnc3sc(COc4ccccc4)nn23)c1,?
COc1ccc(S(=O)(=O)NC(CC(=O)NC2CCCC2)c2ccco2)cc1 (stereo not drawn),-13%
O=c1c2cnn(-c3ccccc3)c2ncn1Cc1ccccc1F,-15%
CC(C)Oc1snc(Cl)c1C(N)=O,-9%
NC(=O)CSc1nnc(Cn2c(=O)sc3ccccc32)n1-c1cccc(Cl)c1,-2%
O=C(Nc1ccc2c(c1)OCCO2)C1CCN(C(=O)c2ccccc2)CC1,-4%
COc1ccc(-c2nn(CC(=O)NCCc3ccccc3)c(=S)n2C)cc1,-4%
CCCCOc1ccc(C(=O)Nc2cc(C)c(OCC(=O)N3CCOCC3)c(C)c2)cc1,0%
CCCCNC(=O)C(Cc1ccccc1)NS(=O)(=O)c1ccc2c(c1)c(=O)n(C)c(=O)n2C (stereo not drawn),-19%
C=CCn1c(Cc2c[nH]c3ccccc23)n[nH]c1=S,-23%
COC(=O)c1sc(N)c(C(=O)OC)c1COC(=O)CNS(=O)(=O)c1cccc(C#N)c1,-10%
O=C(COc1ccc(Br)cc1)Nc1ccc([N+](=O)[O-])cn1,-11%
COCCNC(=O)C(c1ccco1)N(Cc1ccc(OC)cc1)C(=O)Cn1nnc2ccccc21 (stereo not drawn),-4%
CCOC(=O)CSc1nc2c(c(=O)n(C)c(=O)n2C)n1Cc1ccccc1F,-5%

# Another view of some results above:
mol: NC(=O)CSc1nnc(Cn2c(=O)sc3ccccc32)n1-c1cccc(Cl)c1
  HPGD block = -2%

mol: CC(C)Oc1snc(Cl)c1C(N)=O
  HPGD block = -9%

mol: C=CCn1c(Cc2c[nH]c3ccccc23)n[nH]c1=S
  HPGD block = -23%

mol: COC(=O)c1sc(N)c(C(=O)OC)c1COC(=O)CNS(=O)(=O)c1cccc(C#N)c1
  HPGD block = -10%

# Further compounds follow.
SMILES,HPGD block
COc1ccc(-n2c(=S)[nH]c3cc(C(=O)NCCCN4CCCC4=O)ccc3c2=O)c(OC)c1,-16%
Cc1ccc(N2CCN(C(=O)CCc3nc4ccccc4[nH]3)CC2)c(C)c1,-6%
CC(C)(C)c1ccc(C(=O)NCCn2c(N)c(C#N)c3nc4ccccc4nc32)cc1,?
Cc1ccc(NC(=O)C2C(=O)N(C)c3ccccc32)cc1 (stereo not drawn),-27%
COC(=O)c1c(NC(=O)c2ccco2)sc2c1CCC2,?
O=C(COc1ccccc1)NC(=S)Nc1ccc2c(c1)Cc1ccccc1-2,-8%
Cn1cnnc1SCc1ccccc1Br,-9%
FCCCOc1ccc(/C=N/OCc2c(Cl)cccc2Cl)cc1,-7%
CCNc1ncc2nc(CCc3ccccc3)c(=O)n(-c3ccccc3)c2n1,?
COc1ccc(-c2nc3c(c4c2C[C@H](c2ccccc2)OC4)CN(C(=O)NCc2ccco2)CC3)c(C)c1,-6%
O=S(=O)(c1ccc2c(c1)oc1ccccc12)N1CCOCC1,-8%
CCn1c(SCC(=O)NCCc2ccc(F)cc2)nnc1-c1cccs1,-12%
O=C(NCc1ccco1)c1cnn2c(C(F)(F)F)cc(-c3ccco3)nc12,?
COc1cc(OC)c(NC(=O)CCNC(=O)Cn2cnc3ccccc3c2=O)cc1Cl,-8%
Nc1ccc2nc(-c3cccnc3)[nH]c2c1,1%
COc1ccc(N2CCN(Cc3nc(N)nc(N4CCCc5ccccc54)n3)CC2)cc1,-7%
CC1CCCCC1NC(=O)COC(=O)c1ccc(S(=O)(=O)N2CCOCC2)cc1 (stereo not drawn),-7%
O=C(NC1CCCCC1)c1ccc(CNc2c(N3CCOCC3)c(=O)c2=O)cc1,14µM*
CC1CCCCC12NC(=O)N(CC(=O)Nc1ccc(N3CCOCC3)cc1)C2=O (stereo not drawn),-4%
CC(C)(C)c1ccc(Cn2cnc(-c3ccc([N+](=O)[O-])cc3)c2)cc1,-15%
Cc1ccc(OC(=O)c2ccccc2P(=O)(O)O)cc1,-9%
C=CCn1c(SCC(=O)Nc2cc(C)nn2-c2ccccc2)nnc1C1CCCCC1,-6%
COc1ccc(Cc2nc(C(=O)Nc3ccc(Cl)cc3)cs2)cc1,?
CC(/C=C/c1ccccc1)=N/O,-8%

# Some of the entries above, reformatted:
molecule | HPGD block
CC(C)(C)c1ccc(Cn2cnc(-c3ccc([N+](=O)[O-])cc3)c2)cc1 | -15%
Cc1ccc(OC(=O)c2ccccc2P(=O)(O)O)cc1 | -9%
C=CCn1c(SCC(=O)Nc2cc(C)nn2-c2ccccc2)nnc1C1CCCCC1 | -6%

# The listing continues:
SMILES,HPGD block
CCC(C)N(C)C(=O)c1cc2ccccc2c(-c2ccccc2Cl)n1 (stereo not drawn),-21%
COCCc1ccc(OCC(O)CNC(C)C)cc1 (stereo not drawn),-11%&-15%&3%
COc1ccc(N2CCN(C(=O)CSc3nnc4ncccn34)CC2)cc1,-8%
O=C(Nc1cc(Cl)ccc1Oc1ccccc1)c1ccc(F)cc1,-19%
Cc1ccc2[nH]c(=O)c(CN(CCN3CCOCC3)C(=O)Nc3ccc(F)cc3)cc2c1,-10%
Cc1ccc(Cn2ccc(NC(=O)c3cc(-c4ccccc4)on3)n2)cc1,-2%
COc1ccc(CCNC(=O)c2cnc3n(c2=O)CCS3)cc1OC,-17%
CCOC(=O)c1c(-c2ccccc2)csc1NC(=O)/C(C#N)=C/c1ccc(O)c(OC)c1,-22%
COc1ccc(CCNC(=O)CN2C(=O)c3ccccc3S2(=O)=O)cc1OC,-1%
CCCCn1c(-c2cccs2)nc2nc3ccccc3nc21,?
O=C(N/N=C/c1ccco1)c1ccccc1OCc1ccccc1Cl,-13%
Nc1nc(-c2ccc(Br)cc2)cs1,-17%
CC(C)(C)C1CCC(=NNC(=O)c2ccccc2-n2cccc2)CC1 (stereo not drawn),-14%

# Screening results (PubChem BioAssay)
